Screening data: PubChem, National Center for Advancing Translational Sciences (NCATS)
Bst PK mod: modulators of Bacillus stearothermophilus pyruvate kinase; partly purified Bacillus stearothermophilus pyruvate kinase, luminescence ATP production; ribose 5-phosphate activator present at AC10; Potency, µM; 1.2% of 51,000 active; AID 361; in the data active means potency below about 11 µM; inconclusive means mostly about 12 µM to 25 µM; inactive means weaker than that;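 the screen sought inhibitors and activators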;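 also: potency is read from the fitted curve at half-maximal effect; scaled between full activation by ribose 5 phosphate and full inhibition by luteolin; about four in five hits inhibit and the cells do not say which; series up to 57 µM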
TsaE inh: inhibitors of E. coli YjeE (TsaE). P0AF67. purified YjeE, fluorescence polarisation of a bound ADP probe. Potency, µM. 0.05% of 71,000 active. AID 605; active = well fitted falling curve; inconclusive = weaker or top-dose-only fall, or a rising curve; inactive = flat or poorly fitted curve;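 also: top concentration of the series not given in the record; excess ADP was the control for the full effect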
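Fluorescence polarization of a BODIPY Texas Red–ADP probe (2 uM) bound to purified YjeE (10 uM) was read after 15 min room-temperature incubation with compounds. Loss of polarization marks inhibitors; ADP serves as titrated control.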
An asterisk follows results filed as active; i = inactive; . = not tested or not shown.

Bst PK mod	TsaE inh	molecule
.	i	C=CCn1c(-c2ccc(OC)cc2)nc2ccccc21
.	i	Cc1cc(NC(=O)CN2C(=O)CC(c3ccco3)Sc3ccccc32)no1 (centres undefined)
.	i	O=C(O)c1cccnc1C(=O)O
>57	i	CC1CCN(S(=O)(=O)c2ccc(S(=O)(=O)NCC(=O)C(C)(C)C)cc2)CC1
>57	i	CCc1nnc(NC(=O)C2CC(=O)N(CCc3ccccc3)C2)s1 (centres undefined)
>57	i	C(=N\C(/N=C/c1ccco1)c1ccco1)/c1ccco1
>26	.	CN1c2ccccc2-c2nc3ccccc3n2C1c1ccco1 (centres undefined)
.	i	Cc1ccc(Nc2cc(-n3nc(C)cc3C)ncn2)cc1
>57	i	c1ccc(COc2cccc(CNn3cnnc3)c2)cc1
>57	i	CCn1c(=N)n(CC(=O)OC)c2ccccc21
>57	i	O=S(=O)(c1ccc2c(c1)nc1n2CCC1)N1CCOCC1
>57	i	COc1ccc(N(CC(=O)NC2CCCCC2)C(=O)CCCC(=O)Nc2ccccn2)c(OC)c1
>57	i	O=S(=O)(c1ccc2oc3ccc(S(=O)(=O)N4CCCC4)cc3c2c1)N1CCCC1
>57	i	C#CCOc1ccc2c(C)cc(=O)oc2c1
>57	i	O=C(NCc1ccco1)C1(S(=O)(=O)c2ccc(Cl)cc2)CC1
>57	i	COc1cc(C(=O)Nc2oc(-c3ccccc3)c(-c3ccccc3)c2C#N)cc(OC)c1OC
>57	i	CCC(C)(C)n1nnnc1C(c1cc2ccc(OC)cc2[nH]c1=O)N1CCc2ccccc2C1 (centres undefined)
>57	i	Cc1c[nH]c2cccc(OCC(O)CNC(C)(C)C)c12 (centres undefined)
i	i	CCOC(=O)CCSc1nc(C)c2ccccc2n1
>57	i	CCn1c(=O)c2cc(S(=O)(=O)NC3CCCCC3)ccc2n(CC)c1=O
>57	i	CCOC(=O)c1cc2oc(C(c3nnnn3C3CCCCC3)N3CCOCC3)cc2[nH]1 (centres undefined)
.	i	Cc1sc2nc(-c3cccs3)nc(N3CCCN(C)CC3)c2c1C
>26	.	[N-]=[N+]=CC(=O)c1ccnc(C(=O)C=[N+]=[N-])c1
.	i	CCn1cc(C(=O)NCCCN2CCC(C)CC2)c2cc(OC)c(OC)cc2c1=O
>57	i	O=C(CN(CC1CCCO1)C(=O)Cn1nnc(-c2ccc(F)cc2)n1)NC1CCCCC1 (centres undefined)
.	i	O=C(Cn1cc2c(n1)CCCC2)NC1CCN(Cc2ccccc2)CC1
.	i	COc1ccc(Br)cc1S(=O)(=O)N1CCN=C1C
>57	i	CCCS(=O)(=O)N1CCC(C(=O)NCCc2ccc(C)cc2)CC1
>57	i	Nc1nc(-c2cccnc2)nc(N2CCCCC2)n1
.	i	Cc1cc(NC(=O)c2cccc(F)c2)ncc1NC(=O)c1ccco1
>57	i	CCn1c(SCC(=O)Nc2ccc(NC(C)=O)cc2)nnc1C1CC1
.	i	NCCC[C@@H](CC(=O)N[C@@H]1CCCC[C@H]1C(=O)N[C@H](CC(=O)N[C@@H](CCC(=O)O)CC(=O)O)Cc1ccccc1)NC(=O)C[C@H](CO)NC(=O)[C@@H]1CNCC[C@H]1N
>57	i	COc1cc(C(=O)Nc2cccc3ncccc23)cc(OC)c1OC
.	i	O=C(Nc1ccccc1O)c1ccccc1O
>57	i	Cc1ccc(NCc2nnc(SCC(=O)Nc3ccccc3)n2CC2CCCO2)c(C)c1 (centres undefined)
>57	i	O=C1CC(c2ccc3c(c2)OCO3)C2=C(CCCC2=O)N1 (centres undefined)
>57	i	c1ccc(OCCCc2nc(-c3cccnc3)no2)cc1
.	i	Fc1ccc(Nc2ccnc(-c3ccoc3)n2)cc1
>57	i	CCC(C)c1ccc(NC(=O)C2CCCN(c3ncccn3)C2)cc1 (centres undefined)
>57	i	Cc1ccc(-c2nnn(CC(=O)N(CC(=O)NCC3CCCO3)c3ccccc3)n2)o1 (centres undefined)
>57	i	COc1ccc(CCNC(=O)CNCC2CCCO2)cc1OC (centres undefined)
>57	i	Cc1cc(C)c2[nH]c(=O)c(C(c3nnnn3CC3CCCO3)N3CCCC(C)C3)cc2c1 (centres undefined)
>57	i	COc1ccc(Cl)cc1S(=O)(=O)Nc1cccc(C(=O)O)c1
>57	i	CC(=O)N(c1ccc(N(C(C)=O)S(=O)(=O)c2cccs2)cc1)S(=O)(=O)c1cccs1
>26	.	N#CC1=C(SCc2ccccc2)NC2=C(C(=O)CCC2)C1c1ccc2c(c1)OCO2 (centres undefined)
>57	i	CCOC(=O)c1[nH]c(C)c(CN(Cc2ccco2)C(=O)C(F)(F)F)c1C
>57	i	COc1ccc(N2CCN(C(CNS(=O)(=O)c3cccs3)c3cccnc3)CC2)cc1 (centres undefined)
>26	.	C=CCNc1nc(-c2cccc(OC)c2O)nc2ccccc12
>57	i	O=C(CN(CCO)c1ccccc1)NC12CC3CC(CC(C3)C1)C2
.	i	COc1cccc(N2CCN(Cc3cccnc3)CC2)c1
.	i	CC(C)C(CO)NC(=O)CC(=O)NC(CO)C(C)C (centres undefined)
>57	i	CC(C)Oc1ccc(C(=O)N(Cc2ccco2)C2CCS(=O)(=O)C2)cc1 (centres undefined)
i	i	COCCNC(=O)c1ccc(Cl)c(Cl)c1
>57	i	CCOc1cc(-c2ccc3c(c2)OCO3)cc(=O)c2c(C)oc(C)c12
>57	i	COC(=O)c1c(C#N)c(N)nc2c1CCCC2
>57	i	Cn1c(=NC(=O)CSCC(=O)N2CCOCC2)sc2ccccc21

(list continues)
Bst PK mod	TsaE inh	molecule
>57	i	CC(C)CCOCC(=O)Oc1ccccc1C(=O)O
6.2*	i	O=C1NC(=O)[C@@H]2C3c4ccccc4C=CN3[C@H](C(=O)c3cccs3)[C@H]12 (some centres undefined)
.	i	CCOc1ccccc1-c1nc(SCC(=O)O)n[nH]1
.	i	O=c1c(-c2ccc(Cl)cc2)nc2cnc(N3CCNCC3)nc2n1Cc1ccc(F)cc1
.	i	CC(=O)c1cccc(NC(=O)C2CC(=O)N(c3cccc(C)c3C)C2)c1 (centres undefined)
>57	i	O=C1CC(c2cccc(Cl)c2)CC(O)=C1C=NCCCO (centres undefined)
>57	i	CC(=C1C(=O)c2ccccc2C1=O)N1CCN(c2ccccn2)CC1
>57	i	CC(NC(=O)C1CCCCC1)c1ccc2c(c1)OCCO2 (centres undefined)
>57	i	COc1ccc(CNC(=O)CN2CCC(C(=O)c3ccc(OC)cc3)CC2)cc1
>57	i	O=C(CC1C(=O)NCCN1C(=O)c1ccc(F)cc1)OCc1ccccc1 (centres undefined)
>57	i	COc1ccc(CCNS(=O)(=O)c2cccs2)cc1
>57	i	Cc1ncoc1C(=O)Nc1ccccc1C(N)=O
.	i	Cc1ccccc1-c1nc(N2CCNCC2)c2ccccc2n1
.	i	CCCc1nnc(NC(=O)CSc2ncn[nH]2)s1
>57	i	CC(C)(C)NC(=O)C1CC(=O)OC12CCCCC2 (centres undefined)
.	i	c1csc(-c2nn3c(-c4ccncc4)nnc3s2)c1
>26	.	Cc1cc2c(c(=O)o1)C(CC(C)C)C(C#N)=C(N)O2 (centres undefined)
.	i	CCOC(=O)C1CCN(c2c(N3CCCC(C(=O)OCC)C3)c(=O)c2=O)CC1 (centres undefined)
>26	.	CCC1(C)Cc2c(sc3[nH]c(=O)[nH]c(=O)c23)CS1 (centres undefined)
i	.	c1ccc(N2CCN(c3nc(-c4ccccn4)nc4ccccc34)CC2)cc1
>57	i	CS(=O)(=O)N(CC(=O)Nc1ccc2c(c1)OCCO2)Cc1ccccc1
>57	i	O=C1c2ccccc2C(=O)N1Cc1nc2ccccc2c(=O)n1CCCN1CCOCC1
>57	i	O=C(Cn1cccc1)N1CCc2ccccc21
>57	i	CCC(C)Oc1cccc(C(=O)Nc2ccccc2N2CCOCC2)c1 (centres undefined)

Structures listed so far shown as hits in Bst PK mod:
Bst PK mod	TsaE inh	molecule
6.2*	i	O=C1NC(=O)[C@@H]2C3c4ccccc4C=CN3[C@H](C(=O)c3cccs3)[C@H]12 (some centres undefined)

Next part
Bst PK mod	TsaE inh	molecule
.	i	CC1(C)[C@@H]2CC[C@@](C)(C2)[C@H]1OC(=O)c1ccccc1C(=O)O
.	i	O=C1CC(c2nc3ccccc3[nH]2)CN1c1cccc(C(F)(F)F)c1 (centres undefined)
>57	i	CCCn1c(=O)c2ccccc2n2c(SCCOc3ccc(OC)cc3)nnc12
.	i	CC(=O)[C@H](CC(C)C)NC(=O)[C@@H](CC(C)C)NC(=O)[C@H](CC(C)C)NC(=O)OCc1ccccc1
>57	i	CC(C)(C)c1cc(C(F)(F)F)nc(SCCCNC(=O)c2ccco2)n1
i	i	O=C(NCCCN1CCN(Cc2ccccc2)CC1)C1CCN(c2nnc(-n3cccc3)s2)CC1
>57	i	COC(=O)c1ccc(CN(c2ccccc2OC)S(=O)(=O)c2cccs2)o1
>57	i	CCNc1nc(NC(C)(C)C)nc(N(CC)n2cnnc2)n1
.	i	COc1cccc2c(=O)n(CC(=O)NC3CCCCC3)ccc12
>57	i	Oc1c(C(Nc2ccccn2)c2ccccn2)ccc2cccnc12 (centres undefined)
.	i	N[C@H](Cc1ccc(O)c(I)c1)C(=O)O
.	i	Cc1cc(N2CCC(N(C)C3CCCC3)CC2)nc2cc(O)ccc12
>57	i	c1cncc(-c2nn3c(Cn4cnc5ccccc54)nnc3s2)c1
4.6*	i	O=C(Nc1ccc2c(c1)nc1n2CCSC1)c1ccco1
>57	i	CCC1CCCCN1C(=O)CSc1nnc(-c2cccs2)o1 (centres undefined)
>57	i	COc1nc(Nc2ccc(O)cc2)nc(OC(C(F)(F)F)C(F)(F)F)n1
>57	i	CCOc1ccc(CCNC(=O)c2cccnc2N2CCCC2)cc1OCC
>57	i	O=C(CSc1nnc(-c2cccnc2)n1Cc1ccco1)N1CCc2ccccc21
.	i	CC1(C)NC(=O)N(c2ccc([N+](=O)[O-])c(C(F)(F)F)c2)C1=O
.	i	COc1cc(-c2ccc(N=C=O)c(OC)c2)ccc1N=C=O
>57	i	C=CCn1c(SCCC(=O)O)nnc1-c1cccs1
.	i	COc1cccc(-c2cc(NCc3ccc(OC)cc3OC)ncn2)c1
>57	i	CCOC(=O)N1CCN(C(=O)c2ccc(CS(=O)(=O)c3ccccc3OC)o2)CC1
>57	i	Cc1cc(C(=O)CSc2nnc(N)s2)c(C)n1CCc1ccc(F)cc1
>57	i	Cn1c(Cn2nnc3ccccc32)nnc1SCC(N)=O
>57	i	Cc1cccc(-n2c(N)cc(=O)nc2SCC(=O)Nc2cc(C)on2)c1
.	i	CC(=O)O[C@H]1C[C@H]2CC[C@@H]3[C@H]4C[C@@H]([N+]5(C)CCCCC5)[C@@H](OC(C)=O)[C@]4(C)CC[C@@H]3[C@@]2(C)C[C@@H]1[N+]1(C)CCCCC1
.	i	CC(=O)NC(CCS(C)(=O)=O)C(=O)Nc1cc(C)ccc1C (centres undefined)
>57	i	COCCn1c(SCC(=O)c2ccc(Cl)cc2)nnc1C(C)C
>57	i	N#Cc1ccccc1NC(=O)c1ccccc1OCC(=O)Nc1ccc2c(c1)oc1ccccc12
>57	i	CCOc1ccc(CNc2ccc(N3CCCC3)cc2)cc1
.	i	CCc1ccc(N(CC(=O)NC2CCCC2)S(=O)(=O)c2c(C)noc2C)cc1
.	i	Oc1ccccc1N=Cc1ccc[nH]1
>57	i	CCOC(=O)Nc1cc(C(=O)OC)cc(C(=O)OC)c1
>57	i	C=CCn1c(SCC(=O)NC(=O)NCC(C)C)nnc1C1CCCCC1
>57	i	CCOC(=O)c1ccc(NC(=O)CCNS(=O)(=O)c2ccc3c(c2)oc(=O)n3C)cc1
>57	i	CCCCNC(=O)c1ccc(NC(=O)C2CCCO2)cc1 (centres undefined)
.	i	O=C(/C=C\Nc1ccccn1)c1ccc(Cl)cc1
>57	i	COc1ccccc1-c1c(C)oc2c(CN3CCN(CCO)CC3)c(O)ccc2c1=O
.	i	Cc1ccc(C)c(NC(=O)C2CCC(C)(C(=O)O)C2(C)C)c1 (centres undefined)
>57	i	O=C(CSc1nnc(Cn2c(=O)sc3ccccc32)n1CCc1ccccc1)N1CCOCC1
.	i	CCN(CC)S(=O)(=O)c1ccc(C(=O)OCCN2C(=O)CCC2=O)cc1

Of the compounds above, 16 contain an aryl thioether with sulfur outside any ring.
Bst PK mod	TsaE inh	molecule
i	i	CCOC(=O)CCSc1nc(C)c2ccccc2n1
>57	i	CCn1c(SCC(=O)Nc2ccc(NC(C)=O)cc2)nnc1C1CC1
>57	i	Cc1ccc(NCc2nnc(SCC(=O)Nc3ccccc3)n2CC2CCCO2)c(C)c1 (centres undefined)
.	i	CCOc1ccccc1-c1nc(SCC(=O)O)n[nH]1
.	i	CCCc1nnc(NC(=O)CSc2ncn[nH]2)s1
>57	i	CCCn1c(=O)c2ccccc2n2c(SCCOc3ccc(OC)cc3)nnc12
>57	i	CC(C)(C)c1cc(C(F)(F)F)nc(SCCCNC(=O)c2ccco2)n1
>57	i	CCC1CCCCN1C(=O)CSc1nnc(-c2cccs2)o1 (centres undefined)
>57	i	O=C(CSc1nnc(-c2cccnc2)n1Cc1ccco1)N1CCc2ccccc21
>57	i	C=CCn1c(SCCC(=O)O)nnc1-c1cccs1
>57	i	Cc1cc(C(=O)CSc2nnc(N)s2)c(C)n1CCc1ccc(F)cc1
>57	i	Cn1c(Cn2nnc3ccccc32)nnc1SCC(N)=O
>57	i	Cc1cccc(-n2c(N)cc(=O)nc2SCC(=O)Nc2cc(C)on2)c1
>57	i	COCCn1c(SCC(=O)c2ccc(Cl)cc2)nnc1C(C)C
>57	i	C=CCn1c(SCC(=O)NC(=O)NCC(C)C)nnc1C1CCCCC1
>57	i	O=C(CSc1nnc(Cn2c(=O)sc3ccccc32)n1CCc1ccccc1)N1CCOCC1

The list is partial; count on the stated rates, not on these rows.
